# HIV Env fusion: blocks HIV Env-driven cell-cell fusion | HeLa-JRFL Env/CEM21 cell fusion, luciferase | inhibition, % at 12.3 µM | 1.1% of 360,000 active;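 active = mean replicate inhibition score of at least 50 and every replicate individually at or above 50; inconclusive = only one of the two criteria met; inactive = mean below 50 and not all replicates reaching 50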;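 also: 0% = plate neutral controls and 100% = maraviroc near 300 nM; one replicate is shown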
# eIF4H inh: inhibitors of RNA binding by human eIF4H | AID 2012 | eIF4H fluorescence polarization binding assay | inhibition, % at 35 µM | 0.94% of 290,000 active;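 active = 50% or more with normal probe brightness, or confirmed in later tests; inconclusive = above 50% with abnormal brightness, or retests that disagree; inactive = below 50% or failed in later tests; about a fifth of its hits are not listed in these tables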;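 also: calls also rest on retests at 20 µM and on dose response follow-up; 0% = protein and probe with vehicle and 100% = probe without protein; strong numbers were not always called active; many hits fall short of the cut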
# PABP polyA inh: blocks human PABP binding to poly(A) RNA | fluorescence polarization | inhibition, % at 35 µM | 1% of 290,000 active | AID 2014;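 active = 50% or more with normal probe brightness, or confirmed in later tests; inconclusive = above 50% with abnormal brightness, or retests that disagree; inactive = below 50% or failed in later tests; about a fifth of its hits are not listed in these tables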;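 also: calls also rest on retests at 20 µM and on dose response follow-up; controls were probe without protein and protein plus probe with vehicle; some compounds called inactive have numbers as strong as hits; many hits fall short of the cut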
# Target sequence (P11940 whole entry, looked up): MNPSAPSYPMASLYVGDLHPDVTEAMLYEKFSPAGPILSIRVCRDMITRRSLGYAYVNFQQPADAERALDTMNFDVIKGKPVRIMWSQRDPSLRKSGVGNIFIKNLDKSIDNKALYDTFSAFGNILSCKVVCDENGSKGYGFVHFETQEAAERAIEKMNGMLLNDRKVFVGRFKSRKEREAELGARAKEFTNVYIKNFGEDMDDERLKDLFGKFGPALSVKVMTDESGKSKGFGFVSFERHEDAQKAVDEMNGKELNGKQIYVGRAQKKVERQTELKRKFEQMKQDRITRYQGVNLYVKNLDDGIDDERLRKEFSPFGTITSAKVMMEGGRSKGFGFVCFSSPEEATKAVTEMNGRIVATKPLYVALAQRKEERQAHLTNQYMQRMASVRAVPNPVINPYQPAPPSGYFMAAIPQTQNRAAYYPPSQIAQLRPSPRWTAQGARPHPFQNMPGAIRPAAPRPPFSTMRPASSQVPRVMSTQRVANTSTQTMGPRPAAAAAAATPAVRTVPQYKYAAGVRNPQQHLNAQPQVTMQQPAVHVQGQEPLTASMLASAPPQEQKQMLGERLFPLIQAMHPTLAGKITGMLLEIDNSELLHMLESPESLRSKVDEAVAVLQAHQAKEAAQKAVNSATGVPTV
# CSC inhib: cancer stem cell inhibition. cancer stem cell-like cells viability, luminescence. AID 2717. inhibition, % at 7.5 µM. 1.1% of 300,000 active;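 active = mean at 75% or more and at least half the replicates too; inconclusive = mean and replicates disagree; tested in HMLE shEcad cells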;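 also: 0% = median of negative and 100% = median of positive control wells; the first replicate is given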
# Yeast UUG start: modulators of start codon recognition fidelity in yeast. activity score, % at 18.7 µM. AID 602363. S. cerevisiae UUG-firefly luciferase reporter, luminescence/redox ratio. 0.13% of 350,000 active;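 active = replicate mean at a twofold rise or more, about +100% in these data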;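 also: firefly luciferase made from a UUG start codon reports start codon fidelity; reporter light over untreated wells divided by growth signal over untreated wells; some hits fall short of that in this replicate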
# Rce1 inh: blocks yeast Ras-converting enzyme; AID 2563; yeast membranes, quenched prenylated peptide cleavage fluorescence; 0.27% of 290,000 active; Q03530; calls only;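 active = fall in fluorescence gain of 50% or more versus controls, with final raw signal at or below 3038400; inconclusive = same 50% fall but final raw signal above 3038400; inactive = fall in fluorescence gain under 50%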;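 also: plate controls were neutral control wells for no effect and wells lacking membranes for full effect; tested at 10 µM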
# Target sequence (Q03530 whole entry, looked up): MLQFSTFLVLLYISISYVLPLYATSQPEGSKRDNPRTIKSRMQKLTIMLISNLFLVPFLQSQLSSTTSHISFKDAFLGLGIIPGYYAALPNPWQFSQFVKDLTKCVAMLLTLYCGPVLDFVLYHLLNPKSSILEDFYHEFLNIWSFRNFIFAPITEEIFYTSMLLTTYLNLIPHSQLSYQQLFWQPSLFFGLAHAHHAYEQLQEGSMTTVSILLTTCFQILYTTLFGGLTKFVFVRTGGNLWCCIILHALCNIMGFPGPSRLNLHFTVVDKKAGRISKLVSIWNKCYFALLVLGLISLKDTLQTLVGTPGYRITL
# MT1-MMP act inh: inhibitors of human MT1-MMP activation | P50281 | HT1080 RFP-PRO-GFP cells, GFP/RFP ratio fluorescence, overnight; percent of plate control window, DMSO zero | GFP/RFP ratio change, % at 20 µM | 0.061% of 360,000 active | AID 651647;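 active = GFP/RFP ratio change of at least 30% with cell ATP level not reduced by more than half and red fluorescence within 50% of control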; also: strong numbers were not always called active
#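 Assay system: HT1080 RFP-PRO-GFP cells. Benchmarks: DMSO vehicle wells and RFP-L50D-GFP reporter cell wells. Times: overnight cell settling, then overnight compound exposure, 37 °C, 5% CO2. Compound: 20 µM single dose, 1% DMSO. Read-out basis: GFP/RFP fluorescence ratio.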
# eIF4H inh retest: also measured in eIF4H inh; calls as there; inhibition, %; compound at 20 µM; confirmation average;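 mean of two retest wells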
# PABP polyA inh retest: further read-out of PABP polyA inh, marked with its call; inhibition, %; compound at 20 µM; confirmation repeats;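 mean of two retest wells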
# MT1-MMP act inh RFP: recorded beside MT1-MMP act inh, whose call it bears; RFP signal change, %; measured here: RFP expression control read;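 0 = vehicle wells; hits needed this value within 50% of zero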
# Starred values were filed as active, the others as inactive; i = inactive; ? = inconclusive; · = not tested or not shown. An excerpt. The share of hits here may be higher or lower than overall.
SMILES,HIV Env fusion,eIF4H inh,PABP polyA inh,CSC inhib,Yeast UUG start,Rce1 inh,MT1-MMP act inh,MT1-MMP act inh RFP,others
Cc1ccc(OP(=O)(NCc2ccccc2)Oc2ccc(C)cc2)cc1,·,0.2,-5.4,6.8,-14.2,i,-8.7,-9.6,
C/C=C1\CN2[C@H]3C[C@@]45c6ccccc6N(C)[C@H]4[C@@H]2CC1C3[C@H]5O (stereo not given in full),·,·,·,-5.3,-7.4,i,4.5,7.0,
O=c1[nH]c(=O)n(Cc2ccccc2Cl)c(O)c1/C=C1/C=CC=N1,-2.6,74.8,-5.9,48.8,·,i,9.2,11.4,eIF4H inh retest=7.2;PABP polyA inh retest=25.1
Cc1ccc(Cn2cc(C=O)c3ccccc32)cc1,10.2,-3.3,-4.7,25.5,6.1,i,-3.3,-13.3,
CCCNC(=O)N1[C@H]2CC[C@@H]1C(C(=O)OC)=C(c1ccc(OC(F)(F)F)cc1)C2,-15.2,·,·,25.1,-14.9,·,5.5,-9.3,
CCCCCCCCn1sccc1=O,·,·,·,59.7,-21.4,·,-3.2,3.6,
CC(C(O)c1ccccc1)N(C)CCn1cnc2c1c(=O)n(C)c(=O)n2C (stereo not given),-5.0,-14.6,-9.4,-25.6,·,i,2.4,2.0,
CCCN1CCCC(C(=O)c2cc(C)c(OC)c(C)c2)C1 (stereo not given),3.8,2.1,-1.1,62.5,-2.9,i,-4.2,-4.1,
CC(C)(C)n1cc(C(=O)c2ccccc2)cc1-c1ccccc1,6.8,-10.2,5.9,64.9,-4.7,i,-2.3,-8.9,
O=C(NC1CCCCC1)N1Cc2cc(N3CCCCC3)ccc2-n2nncc2C1,-8.3,·,·,·,-24.7,·,8.6,3.3,
O=c1c2ccccc2nc(/C=C/c2ccco2)n1-c1ccccc1O,19.9,54.9,43.7*,0.6,-8.5,i,-6.3,2.3,eIF4H inh retest=45.6;PABP polyA inh retest=54.4*
CS(=O)(=O)c1ccc(C2=C(CNC(=O)c3nccs3)[C@H]3CC[C@@H](C2)N3CCOc2ccccc2)cc1,-5.0,·,·,·,10.5,·,2.3,5.2,
CCc1nn2c(=O)c(F)c(N3CCNCC3)nc2s1,-8.7,·,·,·,-2.9,·,-2.8,6.0,
CSCCC(NC(=O)CCC(=O)OC1CC[C@H]2[C@@H]3CC[C@H]4CC(=O)CC[C@]4(C)[C@H]3CC[C@]12C)C(=O)O (stereo not given in full),-5.5,-1.4,0.0,-10.1,1.0,i,0.0,3.1,
O=C(O)C1=CC2c3ccccc3C1c1ccccc12,6.4,2.8,-1.4,-5.7,9.0,i,-4.0,1.8,
COc1ccc(CNCCc2cccc(F)c2)c2ccccc12,·,19.4,0.1,·,·,i,·,·,
Cn1c(O)c(C=NCCN2CCN(C(=O)c3ccccc3)CC2)c(=O)n(C)c1=O,·,-5.9,0.2,-9.4,-12.0,·,-1.0,-2.4,
CCCCNC(=S)N1CCn2cccc2C1c1cccnc1 (stereo not given),5.5,-7.1,87.6,8.7,-2.3,i,-0.6,1.5,eIF4H inh retest=3.7;PABP polyA inh retest=-3.1
CCC1(Oc2ccccc2)C(=O)NC(=O)NC1=O,24.4,·,·,·,-16.6,·,-3.9,0.5,
CC1C(OC(=O)CCC(=O)NC(C)(C)CO)O[C@H]2OC3(C)CC[C@H]4[C@H](C)CCC1C24OO3 (stereo not given in full),45.2,4.9,2.5,3.0,12.7,i,-31.8,-21.0,
CN1C(=O)C(c2ccc([N+](=O)[O-])cc2[N+](=O)[O-])C(=O)N(C)C1=O,6.8,2.8,11.5,-3.9,53.7,i,3.6,1.7,
Cc1ccc(S(=O)(=O)CC(C)(O)C(=O)Nc2cccc(C(F)(F)F)c2)cc1 (stereo not given),67.7*,-5.0,-1.3,3.1,1.5,i,6.0,3.7,
CC1CCN(CC(=O)c2ccc3c(c2)OCCO3)CC1,-6.8,11.2,9.3,-1.5,-27.9,i,-1.2,4.3,
O=P(CN1CCN(c2ccccc2)CC1)(N1CCCCC1)N1CCCCC1,·,1.2,-10.1,16.7,-4.3,i,-2.3,-3.8,
Nc1c(Br)cc([N+](=O)[O-])cc1[N+](=O)[O-],·,·,·,-11.3,10.3,·,0.1,8.6,
Cc1cc(OC(=O)CCCNC(=O)OC(C)(C)C)c2c3c(c(=O)oc2c1)CCC3,-5.3,-10.8,1.5,-15.3,-11.4,i,4.2,-8.0,
Cc1sc2ncn(CC(=O)NCC(=O)N3CCC4(CC3)OCCO4)c(=O)c2c1C,·,3.2,0.7,-7.9,-18.1,i,4.9,6.5,
Cc1cc(OCC(=O)NCC(O)c2ccccc2)c2c3c(c(=O)oc2c1)CCCC3 (stereo not given),-14.3,26.2,3.4,-10.1,-6.2,i,-0.4,-2.7,
O/N=C1/C(=C\c2ccccc2)N2CCC1CC2,-1.6,2.7,-2.7,·,·,i,-1.8,-2.5,
CC(C)NCC(O)c1ccc(C2CCCC2)cc1 (stereo not given),-0.1,0.0,7.5,20.0,·,i,-0.2,-3.3,
Cc1ccc(-n2c(O)c(C=Nc3ccc(S(=O)(=O)N(C)C)cc3)c(=O)[nH]c2=O)cc1,9.6,?,125.4*,-14.5,-5.1,i,-206.7,2.0,PABP polyA inh retest=123.8*
CC(=NCc1ccco1)c1c(O)n(-c2ccc(Cl)cc2)c(=O)[nH]c1=O,-48.6,-9.5,4.6,-15.5,·,i,6.3,-0.7,
C[N+]12CCC(CC1)C(C(O)(c1ccccc1)c1cccs1)C2 (stereo not given),·,-11.4,-14.8,-6.9,-10.3,i,-7.7,-2.9,
CCCCn1c(NS(=O)(=O)c2ccc(C)cc2)c(C(=O)OCC)c2nc3ccccc3nc21,6.3,-6.2,4.3,33.6,11.9,i,-6.3,1.6,
COc1ccc(CCNC(C)CCc2ccc(OC)cc2)cc1 (stereo not given),·,-2.5,6.3,-10.1,·,i,4.1,9.1,
CCOC(=O)C(NC(=O)CC)(Nc1ccc(C(O)(C(=O)OCC)C(F)(F)F)cc1C)C(F)(F)F (stereo not given),-292.6,-4.6,-0.6,-18.3,-9.4,i,2.3,-0.4,
O=C(C[N+]12CCN(CC1)CC2)NCCc1ccc(Cl)cc1Cl,8.1,12.7,5.8,-4.5,-17.6,i,6.8,5.8,
CCc1c(C)nc(N)nc1N1N=C1SC,-69.1,1.5,-10.7,-6.6,-15.3,i,0.9,3.3,
CCC(CO)(C(=O)OC1C[N+]2(C)CCC1CC2)c1ccccc1 (stereo not given),-43.2,15.3,20.7,-15.1,-7.1,i,-3.8,1.8,
Cc1ccc(CN2CCCN(Cc3ccc(C)cc3)S2(=O)=O)cc1,9.4,0.8,1.6,14.8,-16.2,i,4.2,3.9,
Cc1cc(Br)c(NC(=O)CN2CC=C(c3ccccc3)CC2)c(Br)c1,9.0,-3.5,-4.2,·,·,i,-7.1,1.5,
CCCCn1c(O)c(C(CC)=NCCCn2ccnc2)c(=O)[nH]c1=O,4.0,-3.1,-8.5,-8.4,9.6,i,-6.1,-1.2,
Cc1ccccc1NS(=O)(=O)c1ccc(OCC(=O)N2CCN(C)CC2)cc1,2.5,-1.1,-3.6,-7.3,-8.3,i,-0.9,2.5,
CCCNc1nc(OC)nc(N2CC3CC(C2)c2cccc(=O)n2C3)n1 (stereo not given),-1.4,0.1,-4.2,10.5,4.9,i,0.7,-0.9,
CCCCn1c(=O)c(C(=O)NCc2ccccc2OC)c(O)c2ccccc21,20.0,-11.4,3.5,52.1,-10.1,i,0.9,-4.0,
CCC(CC)C1C(C#N)=C(N)Oc2c1c(=O)oc1ccccc21 (stereo not given),·,-5.6,-0.4,10.2,-4.0,i,-0.2,-6.1,
COc1ccc(S(=O)(=O)Cc2ccc(C(=O)N3CCC4(CC3)OCCO4)o2)cc1,-18.5,4.5,1.7,-6.9,-0.5,i,1.7,0.5,
Cc1cc(O)c2c(C)c(CC(=O)N3C[C@H]4C[C@@H](C3)c3cccc(=O)n3C4)c(=O)oc2c1,·,-7.2,0.4,-2.8,-12.4,i,-0.1,3.7,
Clc1cccc(Cl)c1CN1CCN(c2ccccc2)CC1,·,-1.1,8.6,7.7,-8.6,i,3.0,2.7,
Fc1ccc(NC2=NCCS2)cc1Cl,·,0.7,8.3,-5.7,4.6,i,6.3,1.6,
CCC(=O)Nc1ccccc1,·,-0.9,-4.2,-10.1,-17.5,i,2.1,6.9,
CN1CCN(c2ccc([N+](=O)[O-])cc2Cl)CC1,-52.9,-5.2,1.9,-2.8,·,i,-0.7,0.4,
COC(=O)CC1(CC(=O)OC)C(=O)NC(=O)NC1=O,-22.4,3.4,10.4,-14.1,-20.8,i,-3.8,0.2,
Cc1n[nH]c(C)c1CCN,·,-1.6,-1.7,-18.7,-15.4,i,-1.2,4.8,
CCOP(=O)(OCC)C(CC)N1CCOCC1 (stereo not given),·,4.8,11.0,-0.7,-31.8,i,-2.9,1.4,
COc1cc(CN2CCN(C(=O)Cc3ccccc3)CC2)cc(OC)c1OC,0.5,11.2,4.5,-1.9,-19.5,i,-0.6,-0.3,
CN1C(=O)COc2c(C(=O)NC3CN4CCC3CC4)cc(Cl)cc21 (stereo not given),·,-4.4,4.9,-4.9,·,i,·,·,
C[C@]12CCC3C(CC[C@H]4C[C@@H](O)CC[C@]34C)C1CC[C@@H]2N (stereo not given in full),-1.0,·,·,23.3,-16.3,·,-11.2,-3.0,
O=c1[nH]c2ccccc2c(=O)n1-c1ccc(Cl)cc1Cl,-1.3,-0.7,-13.7,-3.3,·,i,-0.8,-11.5,
CCOC(=O)[C@@]1(C#N)[C@@H]2C=CC(C(N)=O)=CN2[C@@H](C(N)=O)[C@@H]1c1cccc(Cl)c1,-57.7,29.4,38.5,1.1,-0.1,i,-10.7,0.4,
CCCCC(=O)N/N=C/c1c(O)n(CCC2=CCCCC2)c(=O)[nH]c1=O,3.3,26.1,-12.6,2.7,-16.4,i,-0.1,6.8,
C[C@]12CCC3[C@@H](CC[C@H]4C[C@@H](O)CC[C@]34C)C1CCC2=O (stereo not given in full),8.2,-6.5,-4.9,-3.2,0.5,i,-0.6,0.3,

# Quoted at random: four records from the list.
SMILES,HIV Env fusion,eIF4H inh,PABP polyA inh,CSC inhib,Yeast UUG start,Rce1 inh,MT1-MMP act inh,MT1-MMP act inh RFP,others
COc1ccc(S(=O)(=O)Cc2ccc(C(=O)N3CCC4(CC3)OCCO4)o2)cc1,-18.5,4.5,1.7,-6.9,-0.5,i,1.7,0.5,
CN1CCN(c2ccc([N+](=O)[O-])cc2Cl)CC1,-52.9,-5.2,1.9,-2.8,·,i,-0.7,0.4,
Cc1cc(O)c2c(C)c(CC(=O)N3C[C@H]4C[C@@H](C3)c3cccc(=O)n3C4)c(=O)oc2c1,·,-7.2,0.4,-2.8,-12.4,i,-0.1,3.7,
CCOC(=O)[C@@]1(C#N)[C@@H]2C=CC(C(N)=O)=CN2[C@@H](C(N)=O)[C@@H]1c1cccc(Cl)c1,-57.7,29.4,38.5,1.1,-0.1,i,-10.7,0.4,

# Screening data: PubChem, several laboratories
